Bioassay records from PubChem BioAssay.
INS promoter inh – TRM-6 insulin promoter activity inhibition | inhibition, % at 2 µM | TRM-6 cells (human fetal islet line), insulin promoter-eGFP reporter, imaging; reporter expression induced with tamoxifen | 0.9% of 130,000 active;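 active means inhibition above the mean plus 3 SD, with well images judged a real hit on visual review, cut at about 60% in these data, passing the limit was not always enough; inconclusive means inhibition over the cutoff but images rejected on review; inactive means inhibition not above the cutoff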
GALR2 agonist – activates the human galanin receptor 2; O43603; GALR2-expressing cells, agonist activation read-out; activation, %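 (tested at 5 µM)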; 0.48% of 140,000 active; AID 803;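 active means above mean plus 3 SD of all compounds, about 5% in these data, not always enough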;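 further: 0% = vehicle buffer wells and 100% = reference agonist at full effect; tested in CHO reporter cells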
Target sequence (O43603 whole entry, looked up): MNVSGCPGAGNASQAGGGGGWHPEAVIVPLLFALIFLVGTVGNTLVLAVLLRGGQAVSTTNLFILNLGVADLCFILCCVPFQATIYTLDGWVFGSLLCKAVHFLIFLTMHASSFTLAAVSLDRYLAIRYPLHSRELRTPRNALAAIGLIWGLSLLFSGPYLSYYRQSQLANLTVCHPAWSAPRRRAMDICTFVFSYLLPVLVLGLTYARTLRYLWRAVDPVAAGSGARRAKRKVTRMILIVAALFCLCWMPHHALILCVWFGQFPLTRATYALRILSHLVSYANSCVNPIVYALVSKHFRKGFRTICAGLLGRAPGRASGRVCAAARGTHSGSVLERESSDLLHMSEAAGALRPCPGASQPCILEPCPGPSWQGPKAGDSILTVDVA
PKD1 kinase inh – PKD1 (human) kinase inhibition; Q15139; PKD1 kinase fluorescence polarization assay; inhibition, %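 (about 10 µM by stock and volumes)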; 0.056% of 200,000 active; AID 797;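 active means inhibition of 50% or more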;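 further: controls were vehicle for no effect and a reference inhibitor for full effect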
RGS16-Gao HTS – RGS16-Galphao interaction regulator (human); bead-based flow cytometry RGS16-Galphao binding, fluorescence; actives lie on both sides; binding response (% of control), % at 10 µM; O15492+P09471; 0.38% of 220,000 active;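 active means below 25% or above 175%, edge rows of some plates excepted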;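 further: Galphao activated by GDP with aluminum fluoride before binding; 100% = wells without compound and 0% = beads without RGS; some results beyond the cut were filed as inactive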
Target sequence (O15492 whole entry, looked up): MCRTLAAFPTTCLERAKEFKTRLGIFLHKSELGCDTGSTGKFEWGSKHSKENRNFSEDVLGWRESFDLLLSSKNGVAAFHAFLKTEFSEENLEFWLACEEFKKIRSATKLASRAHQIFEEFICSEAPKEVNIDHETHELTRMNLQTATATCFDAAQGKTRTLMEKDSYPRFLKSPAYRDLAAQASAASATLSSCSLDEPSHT
Target sequence (P09471 whole entry, looked up): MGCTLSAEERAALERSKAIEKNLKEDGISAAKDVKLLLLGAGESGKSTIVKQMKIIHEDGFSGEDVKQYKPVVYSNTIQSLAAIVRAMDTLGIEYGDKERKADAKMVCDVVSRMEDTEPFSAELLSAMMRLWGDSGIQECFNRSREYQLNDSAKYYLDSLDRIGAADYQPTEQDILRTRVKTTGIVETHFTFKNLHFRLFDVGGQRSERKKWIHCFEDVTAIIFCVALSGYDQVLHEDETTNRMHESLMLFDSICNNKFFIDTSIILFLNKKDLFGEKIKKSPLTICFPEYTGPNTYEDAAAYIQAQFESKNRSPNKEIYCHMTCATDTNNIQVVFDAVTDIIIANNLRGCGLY
HSV replic up – HSV replication enhancement | maximum fold increase | AID 1956 | HSV replication augmentation in cells, fold increase | 0.005% of 220,000 active;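 active means peak rise of 1.5-fold or more in the series; inconclusive means self-fluorescent or not available for retest; tested in PC3 cells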;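 further: first round at 10 µM; read as green reporter fluorescence; hits show the peak of a series up to 25 µM; 1 = signal of infected wells without compound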
INS promoter inh cell count – recorded beside INS promoter inh, whose call it bears; normalized cell count, %; measured here: cell count, toxicity; reference of the scale not given here;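 cells exposed to compound for 48 h; stained nuclei by imaging scaled within each plate; lower means fewer cells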
HSV replic up primary fold – second read-out of HSV replic up, no call of its own (marks repeat the call); fold increase; compound at 10 µM; measured here: primary screen fold increase 10 uM; tested in PC3 cells;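 GFP signal in the first replicate; 1 = infected wells without compound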
An asterisk follows results filed as active; i = inactive; u = inconclusive; x = no result given.

Results follow in this order: INS promoter inh, INS promoter inh cell count, GALR2 agonist, PKD1 kinase inh, RGS16-Gao HTS, HSV replic up, HSV replic up primary fold
> COC(=O)C(O)(c1ccc(N(C)C(=O)c2cccs2)cc1)C(F)(F)F (stereo not drawn)
 : -79, 66, x, 4, 98, i, 1
> CC(Cc1ccccc1)NCC(=O)Nc1cc(N(C)C)nc2ccccc12 (stereo not drawn)
 : x, x, x, x, 97, i, 0.93
> COC(=O)[C@@H](N)CCCN=C(N)N[N+](=O)[O-]
 : x, x, x, x, 104, i, 0.92
> CN(C)CP(=O)(Nc1ccccc1)N(C)C (stereo not drawn)
 : 14, 107, -2.8, -4, 234, i, 0.97
> Cc1onc(-c2c(Cl)cccc2Cl)c1C(=O)Nc1ccc2c(C(F)(F)F)cc(=O)oc2c1
 : x, x, x, x, 104, i, 1.1
> CN1CCc2c([nH]c3ccccc23)C1
 : x, x, x, -4, 104, i, 0.97
> COc1ccc(Br)cc1CN1CCN(C(=O)Cc2ccccc2)CC1
 : 14, 89, -0.7, -3, 253, i, 0.95
> CCc1cccc(CC)c1NC(=S)N1CC2CC(C1)c1cccc(=O)n1C2 (stereo not drawn)
 : x, x, -1.1, -9, 101, i, 1.2
> O=C1NC(=O)N(Cc2ccco2)C(=O)/C1=C/C=C/c1ccco1
 : x, x, x, x, 96, i, 1.3
> COC(=O)C(O)(c1ccc(NC(=O)c2ccco2)c(OC)c1)C(F)(F)F (stereo not drawn)
 : 13, 112, -1.1, -8, 102, i, 0.87
> Cc1ccc(C2N3CCCN23)cc1 (stereo not drawn)
 : x, x, x, x, 101, i, 0.97
> COc1cc(N2CCOCC2)ccc1C=C1C(=O)NC(=O)NC1=O
 : -6, 76, -2.7, 5, 89, i, 1.1
> CCOP(=O)(Cc1ccc(C#N)o1)OCC
 : x, x, x, x, 103, i, 1
> CC1CCN(C(=O)C(C)Cl)CC1 (stereo not drawn)
 : x, x, x, -9, 100, i, 0.94
> NC1CCCCC1N=Cc1c(O)n(Cc2ccc(F)cc2)c(=O)[nH]c1=O (stereo not drawn)
 : -100, 65, -0.3, 2, 107, i, 0.94
> CC1=C(C(=O)Nc2ccccc2)SCCO1
 : 38, 84, -2.6, 2, 101, i, 0.73
> CCCCOCCCN1C(C)=CC(=C2C(=O)NC(=S)NC2=O)C=C1C
 : x, x, x, x, 100, i, 0.97
> NCCNc1ccc([N+](=O)[O-])c2cccnc12
 : x, x, x, 6, 104, i, 0.64
> O=c1[nH]c(=O)n(Cc2ccccc2)c(O)c1C=Nc1ccc(CN2CCOCC2)cc1
 : 32, 67, -0.5, -10, 66, i, 1.1
> COc1ccc(C2C(C#N)=C(N)Oc3c2c(=O)oc2ccccc32)cc1Cn1cc([N+](=O)[O-])cn1 (stereo not drawn)
 : x, x, -0.5, -2, 99, x, x
> CN1CC[C@@]23CCCC[C@@H]2[C@@H]1Cc1ccc(O)cc13
 : -5, 144, -1.7, 0, 58, x, x
> Cc1nc2ccccc2c(=O)n1-c1cccc(O)c1
 : -73, 135, -3.5, -6, 100, i, 0.98
> COC(=O)c1ccc(N2C(=O)CC(N3CCC(n4c(=O)[nH]c5ccccc54)CC3)C2=O)cc1 (stereo not drawn)
 : -35, 133, -1.8, -6, 110, i, 0.91
> Cn1c(O)c(C=NC2CCCCCC2)c(=O)[nH]c1=S
 : 46, 117, x, 2, 97, i, 0.94
> CC1CCCCN1CC(=O)c1ccc2cc[nH]c2c1 (stereo not drawn)
 : x, x, -3.4, -2, 103, x, x
> Cc1ccc(-c2nc3ccccc3c(=O)n2-c2ncccc2C)cc1
 : x, x, -2.1, -6, 102, i, 1.2
> O=C(/C=C/c1c[nH]c2ccccc12)c1c(O)n(CCc2ccccc2)c(=O)[nH]c1=O
 : x, x, x, x, 104, u, x
> CCCCN1C(=O)NC(=O)C2(Cc3ccccc3N3CCOCC32)C1=O (stereo not drawn)
 : 12, 32, -1.5, 0, 101, i, 0.92
> Cc1cc(C(=O)CS(=O)(=O)c2ccccc2)cc(C)c1OC(=O)N(C)C
 : 0, 99, x, -4, 101, i, 1.1
> O=C(COc1ccc(S(=O)(=O)N2CCOCC2)cc1)N1CCN(Cc2ccc3c(c2)OCO3)CC1
 : -14, 83, -1.0, 0, 101, i, 0.96

(continued)
Codes: A = INS promoter inh; B = INS promoter inh cell count; C = GALR2 agonist; D = PKD1 kinase inh; E = RGS16-Gao HTS; F = HSV replic up; G = HSV replic up primary fold
CNC(C(=O)c1ccccc1)C(OC(C)=O)c1cccc([N+](=O)[O-])c1 (stereo not drawn)
  A = x	B = x	C = x	D = x	E = 105	F = i	G = 1.2

CC(C)NS(=O)(=O)c1ccc(OCC(=O)N2CCN(Cc3ccccc3)CC2)cc1
  A = -28	B = 200	C = 0.2	D = -6	E = x	F = i	G = 0.93

OC(CCNCCc1c[nH]c2ccccc12)C(F)(F)F (stereo not drawn)
  A = 9	B = 119	C = x	D = 0	E = 103	F = i	G = 0.96

COc1cccc(CNC2CN3CCC2CC3)c1OC (stereo not drawn)
  A = -34	B = 86	C = -3.0	D = -4	E = 99	F = i	G = 0.73

CCCC(=O)C1C(=O)NC(=O)NC1=O
  A = x	B = x	C = 0.2	D = 7	E = 97	F = i	G = 1

Nc1c(C(=O)NC2CCCC2)c2nc3ccccc3nc2n1CC1CCCO1 (stereo not drawn)
  A = x	B = x	C = 33*	D = -9	E = 57	F = x	G = x

COc1ccccc1C1C([N+](=O)[O-])=C(N)Oc2c1c(=O)oc1ccccc21 (stereo not drawn)
  A = x	B = x	C = x	D = x	E = 93	F = i	G = 1.1

CCC(=NC1CCN(Cc2ccccc2)CC1)c1c(O)[nH]c(=O)[nH]c1=O
  A = 15	B = 97	C = -1.0	D = 2	E = 99	F = i	G = 0.91

O=C(Nc1ccc(OC(=O)N2CCCCC2)cc1)N1CCOCC1
  A = 31	B = 121	C = x	D = 0	E = 102	F = i	G = 0.96

CC(Cc1ccccc1)[n+]1cc(/N=C(\N)[O-])on1 (stereo not drawn)
  A = 7	B = 107	C = -4.2	D = 0	E = 100	F = i	G = 1

O=C(O)C(O)(c1ccccc1)C1CCCC1 (stereo not drawn)
  A = x	B = x	C = -2.3	D = -8	E = 93	F = i	G = 1

O=c1c2ccccc2nc(/C=C/c2ccc(O)cc2)n1-c1cccc(O)c1
  A = x	B = x	C = x	D = -4	E = 103	F = u	G = x

CC(=O)N1CC(=O)Nc2ccc(Cl)cc2C1c1ccc(F)cc1 (stereo not drawn)
  A = x	B = x	C = -1.1	D = -14	E = 11*	F = i	G = 1.2

COc1ccccc1OCC#CCN1CCCCCC1
  A = x	B = x	C = x	D = -7	E = 97	F = i	G = 1.1

CC1=C2C(=O)C3C(CC=C4CC(OC5OC(O)C(O)C(O)C5CO)CCC43C)C2CCC12OC1CC(C)CNC1C2C (stereo not drawn)
  A = x	B = x	C = x	D = x	E = 92	F = i	G = 1

O=C(O)c1cn(Cc2ccccc2)nc1-c1ccccc1
  A = x	B = x	C = x	D = 6	E = 100	F = i	G = 0.96

O=S(=O)(c1ccc(F)cc1)N1CCCCC1c1cccnc1 (stereo not drawn)
  A = x	B = x	C = x	D = x	E = 99	F = i	G = 0.9

COc1ccc(S(=O)(=O)N2CC3CC(C2)c2cccc(=O)n2C3)cc1 (stereo not drawn)
  A = -17	B = 116	C = x	D = 7	E = 106	F = i	G = 1

COc1cc(C=C2C(=O)NC(=O)NC2=O)ccc1O
  A = x	B = x	C = x	D = x	E = 101	F = i	G = 0.98

Cc1ccc(N2C(=O)NC(=O)/C(=C\c3ccc([N+](=O)[O-])o3)C2=O)cc1
  A = x	B = x	C = x	D = 18	E = 104	F = i	G = 1.2

Cc1cccn2c(=O)c3c(nc12)N1CCCCC1C1(C3)C(=O)N(C)C(=O)N(C)C1=O (stereo not drawn)
  A = x	B = x	C = x	D = x	E = 104	F = i	G = 1.1

CN(CCc1ccccc1)Cc1ccccc1[N+](=O)[O-]
  A = -11	B = 102	C = -1.2	D = -10	E = 106	F = x	G = x

COc1ccccc1OCCCn1cc(C(=O)c2ccco2)c2ccccc21
  A = -65	B = 63	C = -5.4	D = -5	E = 101	F = i	G = 0.94

Cc1ccccc1-n1c(O)c(/C=C2/C(c3ccccc3)=Nc3ccccc32)c(=O)[nH]c1=O
  A = x	B = x	C = -1.9	D = -6	E = 105	F = i	G = 1.3

COC(=O)C(O)(c1c[nH]c2ccccc12)C(F)(F)F (stereo not drawn)
  A = x	B = x	C = -2.0	D = 0	E = 99	F = i	G = 0.8

Record cards, as listed above. Order of screens: INS promoter inh	INS promoter inh cell count	GALR2 agonist	PKD1 kinase inh	RGS16-Gao HTS	HSV replic up	HSV replic up primary fold
CCCC(=O)C1C(=O)NC(=O)NC1=O reads x	x	0.2	7	97	i	1
O=S(=O)(c1ccc(F)cc1)N1CCCCC1c1cccnc1 (stereo not drawn) reads x	x	x	x	99	i	0.9

Next results follow.
Codes: A = INS promoter inh; B = INS promoter inh cell count; C = GALR2 agonist; D = PKD1 kinase inh; E = RGS16-Gao HTS; F = HSV replic up; G = HSV replic up primary fold
O=c1[nH]c(CN2CC=C(c3ccccc3)CC2)nc2scc(-c3cccs3)c12
  A = x	B = x	C = x	D = x	E = 101	F = i	G = 1.1

COc1ccc(-n2c(Cc3cccc([N+](=O)[O-])c3)nc3ccccc3c2=O)cc1
  A = -3	B = 123	C = -1.1	D = -9	E = 99	F = i	G = 0.96

O=c1[nH]c(=O)n(-c2cccc3ccccc23)c(O)c1C=NCc1ccc2c(c1)OCO2
  A = 17	B = 137	C = -0.9	D = 9	E = 102	F = i	G = 0.81

Cc1ccc(C)c(CN2CCC(n3nnc4cc(F)ccc43)CC2)c1
  A = x	B = x	C = -2.2	D = 3	E = 48	F = i	G = 0.92

COc1ccc(-n2c(O)c(C(C)=NCC3CCCO3)c(=O)[nH]c2=O)cc1 (stereo not drawn)
  A = x	B = x	C = x	D = x	E = 108	F = i	G = 0.9

O=c1c2ccccc2nc(-c2ccccc2)n1-n1cccc1
  A = -6	B = 85	C = -1.4	D = 7	E = 99	F = i	G = 1

O=C(CN1CC=C(c2ccccc2)CC1)NC(=O)NC1CCCCC1
  A = x	B = x	C = x	D = -2	E = 94	F = i	G = 1.1

c1ccc(P(c2ccccc2)c2ccccn2)cc1
  A = x	B = x	C = x	D = x	E = 106	F = i	G = 0.99

Clc1ccc(C2NCCc3[nH]cnc32)cc1 (stereo not drawn)
  A = x	B = x	C = -1.4	D = -1	E = 103	F = i	G = 0.97

Quoted at random: seven records from the list.
Codes: A = INS promoter inh; B = INS promoter inh cell count; C = GALR2 agonist; D = PKD1 kinase inh; E = RGS16-Gao HTS; F = HSV replic up; G = HSV replic up primary fold
O=c1[nH]c(CN2CC=C(c3ccccc3)CC2)nc2scc(-c3cccs3)c12
  A = x	B = x	C = x	D = x	E = 101	F = i	G = 1.1

COc1ccc(-n2c(O)c(C(C)=NCC3CCCO3)c(=O)[nH]c2=O)cc1 (stereo not drawn)
  A = x	B = x	C = x	D = x	E = 108	F = i	G = 0.9

O=C(CN1CC=C(c2ccccc2)CC1)NC(=O)NC1CCCCC1
  A = x	B = x	C = x	D = -2	E = 94	F = i	G = 1.1

Cc1ccc(C)c(CN2CCC(n3nnc4cc(F)ccc43)CC2)c1
  A = x	B = x	C = -2.2	D = 3	E = 48	F = i	G = 0.92

Clc1ccc(C2NCCc3[nH]cnc32)cc1 (stereo not drawn)
  A = x	B = x	C = -1.4	D = -1	E = 103	F = i	G = 0.97

c1ccc(P(c2ccccc2)c2ccccn2)cc1
  A = x	B = x	C = x	D = x	E = 106	F = i	G = 0.99

O=c1c2ccccc2nc(-c2ccccc2)n1-n1cccc1
  A = -6	B = 85	C = -1.4	D = 7	E = 99	F = i	G = 1

Some of the entries so far, with bars between the fields:
structure | INS promoter inh | INS promoter inh cell count | GALR2 agonist | PKD1 kinase inh | RGS16-Gao HTS | HSV replic up | HSV replic up primary fold
Cc1ccc(C)c(CN2CCC(n3nnc4cc(F)ccc43)CC2)c1 | x | x | -2.2 | 3 | 48 | i | 0.92
COc1ccc(-n2c(O)c(C(C)=NCC3CCCO3)c(=O)[nH]c2=O)cc1 (stereo not drawn) | x | x | x | x | 108 | i | 0.9

Some of the compounds tested (hit frequency here may not be typical).
